Assay outcomes: PubChem, several laboratories
Mtb bLac sens: beta-lactam sensitization of Mtb H37Rv | M. tuberculosis H37Rv growth with meropenem, percent inhibition; hits of this screen are not shown here | inhibition, % at 25 µM | 0.27% of 330,000 active;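 active means about 74% or more and at least 40 points above the plate without the antibiotic, then above 30% in a dose series; inconclusive means first-round hits that could not be retested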;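 further: growth measured after seven days incubation then overnight dye step; 0% = bacteria only wells and 100% = bacteria with antibiotic; twin plates without the antibiotic show which effects depend on it; some results filed as inactive read as strong as hits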
Arbovirus anti: arbovirus infection inhibition. arbovirus infection cell-based antiviral screen. inhibition, % at 10 µM. 0.37% of 200,000 active;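 active means inhibition from about 30%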;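 further: bluetongue infection of BSR cells; cell survival read as ATP light after 72 h; 0% = infected wells without compound and 100% = uninfected wells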
RecA intein inh: blocks M. tuberculosis RecA intein splicing; P9WHJ3; 0.75% of 290,000 active; inhibition, %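 (about 9 µM by stock and volumes)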; AID 2221; cell-free RecA intein splicing, fluorescence; in the data active means inhibition above about 30%; inconclusive means no clear call, values can overlap the other calls;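 further: 0% = vehicle wells and 100% = reference inhibitor control wells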
Target sequence (P9WHJ3 whole entry, looked up): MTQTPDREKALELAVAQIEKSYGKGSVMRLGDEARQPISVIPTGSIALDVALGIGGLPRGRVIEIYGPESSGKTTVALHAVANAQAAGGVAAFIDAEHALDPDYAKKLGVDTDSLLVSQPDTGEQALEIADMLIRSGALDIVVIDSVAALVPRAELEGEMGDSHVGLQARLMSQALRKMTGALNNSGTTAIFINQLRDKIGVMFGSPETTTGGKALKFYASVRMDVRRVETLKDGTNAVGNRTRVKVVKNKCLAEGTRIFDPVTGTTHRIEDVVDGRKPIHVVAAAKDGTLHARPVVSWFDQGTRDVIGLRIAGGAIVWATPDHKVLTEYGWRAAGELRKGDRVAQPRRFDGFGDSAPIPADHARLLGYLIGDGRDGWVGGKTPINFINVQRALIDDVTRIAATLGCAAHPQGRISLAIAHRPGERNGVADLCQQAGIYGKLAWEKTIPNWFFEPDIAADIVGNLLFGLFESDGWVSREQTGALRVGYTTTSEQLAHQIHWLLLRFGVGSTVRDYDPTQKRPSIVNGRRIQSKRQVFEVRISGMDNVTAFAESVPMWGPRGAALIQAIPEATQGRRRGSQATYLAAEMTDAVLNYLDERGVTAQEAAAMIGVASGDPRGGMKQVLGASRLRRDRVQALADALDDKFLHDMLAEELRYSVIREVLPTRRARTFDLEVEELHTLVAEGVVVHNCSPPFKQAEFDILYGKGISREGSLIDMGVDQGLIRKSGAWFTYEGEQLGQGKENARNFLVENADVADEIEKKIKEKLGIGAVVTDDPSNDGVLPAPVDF
Mtb H37Rv: M. tuberculosis H37Rv growth inhibitors, H37Rv strain (AID 1626); one-dose inhibition, % at 10 µM; IC50 in µM for titrated hits; 0.95% of 220,000 active; M. tuberculosis H37Rv growth inhibition; higher % means a stronger effect;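 active means confirmed in a dose series; inconclusive means inhibition above 80% but not taken into the dose series; inactive means below 80% or under 30% at every dose of the series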;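 further: bacteria incubated seven days before Alamar blue readout; 0% = bacteria only wells and 100% = bacteria with antibiotic wells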
YopH inh: YopH (Yersinia) phosphatase inhibition; AID 898; inhibition, %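 (about 10 µM by stock and volumes)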; 0.16% of 140,000 active; fluorescence Ex485/Em525;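 active means inhibition of 50% or more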;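 further: controls were vehicle for no effect and minimum signal wells for full effect; inactives centre near -20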
Arbovirus anti repeat: further read-out of Arbovirus anti, marked with its call; inhibition, %; measured here: 10K subset replicate screen; many hits read low in the repeat;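 first of two repeat runs on a subset; 0% = infected and 100% = uninfected wells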
Starred values were filed as active, the others as inactive; ? = inconclusive; · = not tested or not shown. The list is partial; count on the stated rates, not on these rows.

SMILES	Mtb bLac sens	Arbovirus anti	RecA intein inh	Mtb H37Rv	YopH inh	others
COc1ccc(Br)cc1CNCCc1cccc(Cl)c1	-10.4	·	4.2	·	·
O=C(NNC(=O)c1ccc(NC(=O)C2CC2)cc1)c1ccc(F)cc1	-0.6	·	-1.0	·	·
Fc1ccc2c(c1)C(c1ccncc1)=NNC(c1ccccc1)=N2	0.0	-3.8	1.2	-7.4%	-26.1
Nc1c(C(=O)Nc2ccc(F)cc2)nnn1-c1cccc(C(F)(F)F)c1	7.4	-12.6	-0.5	8.3%	·
CC(=O)Nc1ncc2c(n1)CC(c1ccco1)CC2=O (centres undefined)	-12.9	-2.2	4.5	7.2%	-11.3
Cc1ccc(C)c(NCC(=O)NNC(=S)Nc2ccccc2)c1	5.5	1.5	-1.3	-6.9%	·
CCCSc1ccc(-c2nn(-c3ccccc3)cc2/C=C(/C#N)C(=O)N2CCOCC2)cc1	2.5	7.7	2.7	10.9%	-23.3
CC1CCCN(S(=O)(=O)c2cccc3nonc23)C1 (centres undefined)	-1.9	·	-2.7	·	·
CC(C)CN(C(=O)COC(=O)Cc1cccc2ccccc12)c1c(N)n(Cc2ccccc2)c(=O)[nH]c1=O	-1.9	·	-2.6	·	·
NC(=O)C1CCN(c2nc(C3CC3)nc3c2nnn3Cc2ccccc2)CC1	·	6.3	7.8	-5.1%	-33.2
O=C(C(=O)c1ccc(O)cc1)c1ccccc1	-2.0	·	-0.1	·	·
NC(=O)CSc1nnc(Cn2c(=O)sc3ccccc32)n1CCc1ccccc1	1.0	14.5	-1.3	1.9%	-39.8	Arbovirus anti repeat=-3.7
CCn1cnc2cc(NCc3ccncc3)ccc21	3.0	9.3	-0.7	2.8%	33.2
NC(=O)CCn1c(=O)oc2ccccc21	2.1	1.5	-3.8	5.5%	-6.1
Cc1nc2sc(C(c3ccccc3)N3CCC(O)CC3)c(O)n2n1 (centres undefined)	-4.3	6.2	-1.9	-8.7%	-32.5
O=C(CC1N=C2c3ccccc3N=C(SCc3ccccc3Cl)N2C1=O)NCc1ccco1 (centres undefined)	1.0	-2.4	8.7	-2.8%	-91.2
CC(=O)Nc1cccc(/C(C)=N/NC(=S)NC(C)C)c1	-10.9	-5.4	-4.7	-2.9%	·
CCc1noc(C)c1C(=O)Nc1nc(-c2ccc(OC)cc2OC)cs1	-5.4	·	2.5	·	·
O=C(O)CCC(=O)OCC1CCCCC1	-3.9	5.0	0.5	-5.0%	-9.1
O=C(NC1CCCCC1)c1ccc(Cl)c(NC(=O)c2ccccc2F)c1	-0.9	-5.5	-0.3	-4.6%	-23.1
NC(=O)COc1ccccc1C1=NO[C@@](CC(=O)O)(C(=O)Nc2ccc3c(c2)OCCO3)C1	-2.5	·	1.4	·	·
COc1cc(/C=N/Nc2nc(=O)[nH]nc2C)cc(OC)c1O	-13.4	-2.2	-4.9	-3.4%	·
Cn1c(=O)[nH]c(=O)c2c1nc(NCCCn1ccnc1)n2Cc1cccc(Br)c1	-0.5	2.8	-0.3	0.9%	-10.9
CN1CCN(c2ccc([N+](=O)[O-])c(N3CCCCC3)c2)CC1	-7.0	-15.2	-2.2	-3.2%	·
COC(=O)c1cccc(N(C(=O)c2ccco2)C(C(=O)NC2CCCC2)c2ccco2)c1 (centres undefined)	-11.0	-6.5	1.6	-4.6%	-17.5
Additional structures.
SMILES	Mtb bLac sens	Arbovirus anti	RecA intein inh	Mtb H37Rv	YopH inh	others
O=C(Nc1ccccc1)Nc1ccc(NC(=O)c2ccccc2O)cc1	8.0	·	10.8	·	·
Cc1cc(C)cc(N=Cc2[nH]c3ccc(Br)c(Cl)c3c2O)c1	3.4	-24.8	20.0	7.0%	-14.8
CCOc1ccc(NC(=O)CN2C(=O)COc3ccc(S(=O)(=O)N4CCCCC4)cc32)cc1	6.3	·	0.9	·	·
Fc1cccc(CSc2nnc3c(n2)[nH]c2ccccc23)c1	-2.8	·	0.6	2.0%	·
CN(C)/C=N/c1nc2nccc(-c3ccc(F)cc3)n2n1	-9.6	6.2	-0.1	-6.5%	·
Cc1ccc(NC(=O)[C@H](C)NC(=O)C2CCN(C(=O)[C@H](CC(C)C)NC(=O)OC(C)(C)C)CC2)cc1	0.9	·	-0.7	·	·
CC(=O)NCc1ccc(S(=O)(=O)N/N=C/c2ccc(N(C)C)cc2)cc1	-1.7	3.9	2.6	1.3%	-15.0
CCCCC(=O)Nc1cccc(NC(=O)c2ccccc2Br)c1	-2.4	-9.6	2.1	8.3%	-28.4
CC(=O)c1cccc(NC(=O)/C(=C\c2cccnc2)NC(=O)c2ccccc2)c1	-8.3	·	0.5	·	·
CCOc1ccc(/C=C2/SC(=O)NC2=S)cc1	2.3	-0.1	5.4	25.5%	-19.4
O=C(c1c[nH]c(C(=O)C(Cl)(Cl)Cl)c1)c1ccccc1Br	4.5	-15.4	51.3*	-1.8%	·
CCCn1c(SCC(=O)NCCc2ccccc2)nnc1-c1ccco1	-10.0	5.3	-1.5	-7.4%	-2.0
O=C(Nc1cccc(NC(=O)c2ncn[nH]2)c1)c1cccc(Cl)c1	10.5	-14.3	0.4	-0.1%	·
CN(C)S(=O)(=O)N1CCN(C(=O)c2cccs2)CC1	-4.3	1.4	0.6	-4.8%	-14.1
Cc1nnc(SCC(=O)Nc2sccc2C#N)n1Cc1ccccc1	-6.5	10.4	-0.9	-1.5%	4.1
COC(=O)C(Cc1ccc(O)cc1)NC(=O)C12CC3CC(CC(C3)C1)C2 (centres undefined)	1.3	1.0	1.8	-1.9%	·
O=c1c(/C=C(\O)c2ccc(F)cc2)nc2ccccc2n1-c1ccccc1	21.7	-6.5	-1.7	-9.8%	-1.8
O=C(NC1CCCc2ccccc21)c1cncc(Br)c1 (centres undefined)	17.6	17.8	-0.6	10.6%	-7.9
CCC1=NN(C(=O)c2ccc(Cl)cc2)C(O)(c2ccc(C)cc2)C1 (centres undefined)	5.7	·	7.6	·	·
CCCCn1c(=O)c(CCC(=O)OCC(=O)NC(=O)NCCC(C)C)nc2ccccc21	-1.2	-0.5	-3.1	-5.4%	·
CCN1CCN(CCNC(=O)c2ccc3nc(-c4cccc(C)c4)c(-c4cccc(C)c4)nc3c2)CC1	59.9	·	-3.6	·	·
S=C(NCC1CCCO1)N1CCN(c2nc(-c3ccc(Cl)cc3)cs2)CC1 (centres undefined)	28.0	-20.8	9.2	33.4%	·
CCOC(=O)NC(NCC(O)c1ccccc1)(C(F)(F)F)C(F)(F)F (centres undefined)	-7.1	11.7	0.4	-4.0%	13.3
Cc1ccc(C(=O)C2COC(=O)C2)cc1 (centres undefined)	8.4	0.3	-0.9	3.2%	-12.8
NC(=O)C1(N2CCCCC2)CCN(C(=O)NC2CCCCC2)CC1	-1.6	0.6	-1.2	4.1%	-29.7
New compounds follow
SMILES	Mtb bLac sens	Arbovirus anti	RecA intein inh	Mtb H37Rv	YopH inh	others
Cn1ncc(Cl)c1C(=O)Nc1ccc2c(c1)OCO2	4.3	·	1.6	·	·
O=C(NC1CC1)c1ccc(-c2ccccc2)cc1	-11.7	-1.1	-1.4	92.6%	·
Cc1cc(C(=O)N2CCCC(N3CCN(c4cccc(C(F)(F)F)c4)CC3)C2)c(C)o1 (centres undefined)	?	·	5.0	·	·
CCc1sc(C(=O)NCc2ccco2)cc1C	0.8	·	2.1	·	·
CCCN1CCC(=O)N([C@H](COc2ccccc2)Cc2ccccc2)CC1	-3.9	·	0.6	·	·
CCOCCCn1c(SCC(=O)NCc2ccco2)nc2c(sc3ccccc32)c1=O	1.7	4.3	2.3	0.6%	-20.1
C=CCN1CC(=O)N2C(c3ccccc3)c3[nH]c4ccccc4c3C[C@H]2C1=O (some centres undefined)	7.9	·	-0.8	·	·
N#CCNc1ccc([N+](=O)[O-])cc1C#N	1.3	·	-1.7	17.3%	·
COc1ccc(OC)c(CN2C(=O)c3ccccc3C2C(=O)NCc2cccnc2)c1 (centres undefined)	0.5	2.6	0.4	6.7%	4.1	Arbovirus anti repeat=5.7
CN(CC(=O)Nn1cnnc1)S(=O)(=O)c1ccc(Br)cc1	·	6.2	-2.1	-1.1%	17.4
CC(C)(C)C(=O)NC(c1ccccc1)c1c(O)ccc2ccccc12 (centres undefined)	2.4	·	-1.4	·	·
CCc1nnc(NC(=O)C2CCCCC2)s1	-15.4	-0.9	11.0	-10.9%	7.5	Arbovirus anti repeat=2.9
CC(=O)OCC1OC(Sc2cccc3cccnc23)C(OC(C)=O)C(OC(C)=O)C1OC(C)=O (centres undefined)	-10.4	-1.4	0.0	-11.8%	-36.5
CCOC(=O)C(NC(=O)CC)(Nc1cc(C)on1)C(F)(F)F (centres undefined)	-4.3	1.8	1.2	-3.0%	-13.3
C=C(C)[C@@H]1CC=C(CN2CCC(N3CCC(C(=O)N4CCCC4)CC3)CC2)CC1	-7.5	-19.7	-0.1	5.2%	·
S=c1[nH]nc(-c2ccc(Br)o2)n1Cc1ccccc1	-2.0	11.6	1.6	0.9%	0.2
O=C(CSc1nnnn1Cc1ccccc1)NCCc1ccccc1	-1.8	-4.1	0.2	-10.0%	-29.8
COc1ccc([N+](=O)[O-])cc1NC(=O)/C=C/C(=O)O	-1.5	-2.4	0.4	-7.0%	-29.1
O=C(CNC(=O)c1nc[nH]c1C(=O)NCC(=O)OCc1ccccc1)OCc1ccccc1	-3.2	·	-1.2	·	·
Cc1cccc(N2C(=O)NC(=O)/C(=C\c3cnc(-c4ccccc4)nc3)C2=O)c1	3.3	-0.8	0.4	2.2%	-27.2
Cc1cc2c3ccccc3ncn2n1	-0.7	·	-1.1	-3.6%	·
CCOc1ccc(N(CC(=O)N2CCN(Cc3ccccc3)CC2)S(C)(=O)=O)cc1	-4.4	·	-1.8	·	·
CCOc1ccc(N(CC)C(=O)Cc2c(C(=O)O)n(C)c3ccccc23)cc1	-2.3	·	1.4	·	·
CC/C(CC(C)(C)c1ccccc1)=N\O	?	3.2	-1.7	-7.3%	7.0
O=C(O)CS(=O)(=O)CC(=O)O	-20.1	7.0	2.3	-12.3%	7.5

Ordered by formula weight (falling): part of the list above.
SMILES	Mtb bLac sens	Arbovirus anti	RecA intein inh	Mtb H37Rv	YopH inh	others
CC(=O)OCC1OC(Sc2cccc3cccnc23)C(OC(C)=O)C(OC(C)=O)C1OC(C)=O (centres undefined)	-10.4	-1.4	0.0	-11.8%	-36.5
CCc1sc(C(=O)NCc2ccco2)cc1C	0.8	·	2.1	·	·
O=C(O)CS(=O)(=O)CC(=O)O	-20.1	7.0	2.3	-12.3%	7.5

Remaining list, next part
SMILES	Mtb bLac sens	Arbovirus anti	RecA intein inh	Mtb H37Rv	YopH inh	others
CCn1cc(C(=O)N2CCN(c3ccccn3)CC2)c2cc(OC)c(OC)cc2c1=O	-3.1	2.9	·	-8.6%	-24.1	Arbovirus anti repeat=-1.6
Cc1ccc(C(=O)N2CCc3ccccc32)cc1NC(=O)c1ccco1	5.7	2.6	-0.7	3.5%	·
COc1ccc(C(=O)N(Cc2ccco2)Cc2cc3cc(C)ccc3[nH]c2=O)cc1OC	-11.7	·	0.1	5.5%	21.8
COC(=O)c1scc(C)c1NC(=O)c1cccc(C#N)c1	0.6	·	-0.6	·	·
Cc1ccc(/C=N/NC(=O)Cn2cnc3ccccc32)o1	-4.8	8.0	-4.4	-5.6%	-28.5
O=C(O)c1ccc(CNCc2cccc(OCc3ccc(F)cc3)c2)cc1	2.6	·	1.3	·	·
CCOc1ccc(C(c2c(C)n(C)n(-c3ccccc3)c2=O)c2c(C)n(C)n(-c3ccccc3)c2=O)c(O)c1	-4.7	·	-2.0	·	·
COC(=O)c1c(NC(=O)c2ccc(C)cc2)csc1C	·	·	-0.1	3.2%	·
CCc1ccc(OCC(=O)NC(NC(=S)Nc2ccc(Cl)cc2)C(Cl)(Cl)Cl)cc1 (centres undefined)	70.1	-9.8	1.6	-3.7%	-20.2
O=S(=O)(Nc1ccc(N2CCOCC2)cc1)c1ccc(F)cc1	-5.9	3.0	3.5	0.6%	·
O=C(COC(=O)CCc1nc2ccccc2s1)NC(=O)NCc1ccco1	-3.6	10.0	1.8	3.0%	·
CCC(C)Sc1nnc(Cc2cc(=O)[nH]c(=O)[nH]2)n1-c1ccc(OC)cc1 (centres undefined)	5.5	8.2	0.2	-14.4%	-39.5	Arbovirus anti repeat=0.2
COc1cccc(NC(=O)CN(C)C(=O)c2ccc3ccccc3c2)c1	1.4	-6.0	-0.8	-8.4%	-22.4
O=C(Oc1cncc(Cl)c1)c1ccco1	-4.4	-1.3	-4.7	-3.7%	-3.6

Structural class: the compounds so far with a nitro group on carbon
SMILES	Mtb bLac sens	Arbovirus anti	RecA intein inh	Mtb H37Rv	YopH inh	others
CN1CCN(c2ccc([N+](=O)[O-])c(N3CCCCC3)c2)CC1	-7.0	-15.2	-2.2	-3.2%	·
N#CCNc1ccc([N+](=O)[O-])cc1C#N	1.3	·	-1.7	17.3%	·
COc1ccc([N+](=O)[O-])cc1NC(=O)/C=C/C(=O)O	-1.5	-2.4	0.4	-7.0%	-29.1
